AID923: qHTS Assay for Allosteric/Competitive Inhibitors of Caspase-1: Spectroscopic Profiling in AFC Spectral Region. compound fluorescence, AFC spectral region (405/520 nm); almost no hit is shown here. Potency, µM (top dose mostly 57.5 µM), for the others: at the highest dose fluorescence increase, hits mostly activators. 1.1% of 75,000 active. AID 923, 2007; active = well fitted activation curve with a large enough effect; inconclusive = small, poorly fitted or top-dose-only effect;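 note: potency is the fitted concentration of half-maximal effect; 0% is about no effect; scaled to a free AFC standard on each plate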
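Compound autofluorescence profiled at 405 nm ex/520 nm em during kinetic caspase 1 run (50 nM enzyme, 5 uM Ac-WEHD-AFC, HEPES pH 7.5, 10 mM DTT). Titration up to 57 uM; baseline from regression intercept, normalized to AFC standard curve.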
A488 fluor: A488 region autofluorescence; compound autofluorescence, A488 spectral region, dye equivalency; hits give high values; max dye equivalency, M; 0.1% of 59,000 active; active = above 10 nM dye equivalent; inconclusive = 1 to 10 nM; inactive = 1 nM or less; about half of its hits are not listed in these tables;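 note: highest value over a series up to 38 µM; compound alone in buffer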
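Readout is A488 dye-equivalent concentration, calibrated by a per-plate six-point Alexa 488 series. Compounds in 100 mM Tris buffer pH 8.0 were incubated 15 min at room temperature. Plates were imaged using 480 nm excitation/540 nm emission filters.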
Resorufin fluor: compounds fluorescent in resorufin spectral region. max dye-equivalent concentration, M. Compound fluorescence, resorufin region 547/598 nm, buffer; hits give high values. 0.04% of 59,000 active; active = above 10 nM dye equivalent; inconclusive = 1 to 10 nM; inactive = 1 nM or less; a few of its hits are not listed in these tables; note: highest value over a series up to 38 µM
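Read-out: intrinsic compound fluorescence at ex 547/em 598 nm after 15 min at RT in pH 8.0 Tris (100 mM). Values expressed as resorufin-equivalent concentration from per-plate standard series.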
TSHR agonist: TSH receptor (human) agonism. Potency, µM (titrated, usually from 57.1 µM), for inactives: top-dose activation, hits mostly activators. P16473. 0.48% of 73,000 active. HEK293-CNG-TSHR cells (CNG channel as cAMP sensor), membrane potential dye, cAMP. AID 926; active = well fitted activation curve of enough size with the parental cells flat; inconclusive = any curve in the parental cells; inactive = parental cells flat and receptor cells flat or falling; note: potency is the fitted concentration of half-maximal effect; % of control where 0% means no effect; weak receptor curves with flat parental cells got no call and are not listed
Target sequence (P16473 whole entry, looked up): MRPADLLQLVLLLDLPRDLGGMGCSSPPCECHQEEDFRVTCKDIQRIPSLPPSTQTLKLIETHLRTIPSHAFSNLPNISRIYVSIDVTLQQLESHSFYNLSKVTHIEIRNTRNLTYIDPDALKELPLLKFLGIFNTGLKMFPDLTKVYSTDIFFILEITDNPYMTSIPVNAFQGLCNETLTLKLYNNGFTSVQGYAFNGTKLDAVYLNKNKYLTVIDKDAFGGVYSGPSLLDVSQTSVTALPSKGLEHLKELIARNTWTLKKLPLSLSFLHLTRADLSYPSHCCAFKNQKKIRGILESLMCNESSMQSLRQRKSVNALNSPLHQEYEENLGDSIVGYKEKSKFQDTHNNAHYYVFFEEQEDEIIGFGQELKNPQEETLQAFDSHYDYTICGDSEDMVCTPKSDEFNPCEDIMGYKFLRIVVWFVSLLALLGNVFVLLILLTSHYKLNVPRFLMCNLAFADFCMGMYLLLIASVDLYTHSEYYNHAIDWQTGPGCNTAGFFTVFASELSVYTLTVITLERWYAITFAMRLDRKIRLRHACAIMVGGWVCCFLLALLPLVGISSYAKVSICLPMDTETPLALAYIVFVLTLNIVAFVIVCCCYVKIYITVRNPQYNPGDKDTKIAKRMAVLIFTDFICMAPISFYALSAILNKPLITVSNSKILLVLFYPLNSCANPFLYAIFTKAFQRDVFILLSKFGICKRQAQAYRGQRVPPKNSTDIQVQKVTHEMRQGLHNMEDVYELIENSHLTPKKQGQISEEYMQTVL
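cAMP rise detected as CNG-channel membrane depolarization by fluorescent dye (emission 590 nm), 30 min after compound, following 60 min dye loading containing 100 uM RO 20-1724 at room temperature. Cells: TSHR/CNG HEK 293, with parental CNG HEK 293 as control.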
A647 fluor: compound autofluorescence in A647 spectral region; Compound fluorescence, A647 channel (570/671 nm), Tris buffer; max dye-equivalent concentration, M; 59,000 tested, under 10 active; active means above 1 µM dye equivalent; inconclusive means 0.1 to 1 µM; inactive means 0.1 µM or less;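 note: values scaled relative to a standard on each plate; highest value over a series up to 38 µM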
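Tris 100 mM pH 8.0; cpd + A647 stds pin-transferred; 15 min RT; CCD imager, ex 570/em 671. Output = A647-equivalent conc. per cpd conc.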
* = called active by the depositor; i = inactive; ? = inconclusive; · = not tested or not shown; [ ] = another dose, or the depositor's remark. These rows are one share of the data; rates above refer to the full screens.

SMILES | AID923 | A488 fluor | Resorufin fluor | TSHR agonist | A647 fluor
COc1ccc(CCCNC(=O)CC#N)cc1OC | · | i | i | · | 8e-08
C=CCn1c(N)c(C(=O)N2CCOCC2)sc1=S | 1.3% | i | i | -4% | 3.3e-09
CC(=O)N1CCC2(CC1)CN(c1ccccc1)C2 | 3.4% | i | i | 0% | 1.5e-08
COc1c(Br)cc(Br)cc1C(=O)O | -2.6% | i | i | 1% | 3.5e-09
C/C(=C\C(=O)O)CC(=O)O | · | i | i | · | 8.8e-08
COc1ccc2cc(C(c3nnnn3C3CCCC3)N3CCc4ccccc4C3)c(=O)[nH]c2c1 (configuration not stated) | 14% | i | i | 8% | 8.1e-09
COC(=O)c1ccc(C2C(C(=O)Nc3ccc(C)cc3C)=C(C)Nc3ncnn32)cc1 (configuration not stated) | -0.6% | · | · | -1% | ·
COc1ccc(OC)c(NC(=O)Cn2c(=O)oc3ccccc32)c1 | -0.6% | i | i | 3% | 7.4e-09
COc1cccc(-c2cc(NCc3cccc(C)c3)ncn2)c1 | 1.3% | i | i | ? | 1e-09
CCOc1ccc(NC(=O)NC2CCOC(C)(C)C2)cc1 (configuration not stated) | -0.1% | i | i | 10%[11.4 µM] | 3.1e-08
COCCNC(=O)C(c1ccc(F)cc1)N(CCOC)C(=O)CCC(=O)Nc1nccs1 (configuration not stated) | -0.4% | i | i | -1% | 2.9e-08
COc1ccc(CCNC(=O)c2cc(-c3ccccc3OC)on2)cc1OC | 1.4% | i | i | 0%[11.4 µM] | 3.6e-09
O=C(CSc1nc2c(c(=O)n1-c1ccc(Cl)cc1)SCC2)N1CCCC1 | 0.1% | i | i | ? | 1e-09
Cc1noc(NC(=O)Nc2ccccc2F)c1C#N | -0.2%[11.5 µM] | i | i | -1%[11.4 µM] | 1.4e-09
Cc1cc(NC(=O)c2cccc(C(=O)Nc3cc(C)on3)n2)no1 | -0.6% | i | i | 2% | 1e-09
CC(C)Sc1nc(O)c(Cc2ccccc2)c(=O)[nH]1 | 0.1% | · | · | ? | ·
COc1ccc(C2(CNC(C)=O)CCOCC2)cc1OC | 0.5% | · | · | -4% | ·
Cc1ccc(NC(C(N)=O)c2c(C)[nH]c(=O)[nH]c2=O)cc1 (configuration not stated) | -1.2% | i | i | 10% | 5.7e-08
c1ccc(COCc2ccccc2)cc1 | 0.2% | · | · | ? | ·
COc1ccc(C(=O)n2nc(-c3ccco3)nc2SC)cc1OC | 1.1% | i | i | 5% | 2.4e-09
Cc1ccc(NC(=O)CS(=O)CC(=O)Nc2ccc(N3CCOCC3)cc2)cc1Cl (configuration not stated) | 0.3% | i | i | -8% | 2.5e-09
COc1ccc(O)c(C(=O)c2cnc3onc(C(C)C)c3c2)c1 | -2.6% | i | i | 5% | 4.5e-09
CCCCCCOC(=O)C(C#N)c1nc2ccccc2nc1N1CCOCC1 (configuration not stated) | 21% | i | i | ? | 3.6e-09
C[C@@H]1Cc2ccccc2N1NC(=O)c1ccc(Cl)c(S(N)=O)c1 (some centres not stated) | -0.9%[25.7 µM] | i | i | -13%[25.6 µM] | 4.8e-08
COc1ccccc1CNC(=O)CCC(=O)Nc1nnc(C)s1 | -0.7% | i | i | 10% | 1e-09
Cc1ccc(-c2nnc(SCC(=O)N3CCCC3)o2)cc1 | -0.7% | i | i | 3% | 1e-09
CCOC(=O)c1ccc(N2C(=O)CC(N3CCN(C(=O)c4ccco4)CC3)C2=O)cc1 (configuration not stated) | 0.5% | i | i | -3% | 1e-09
CCCNC1=C(C)C(=O)CC1 | · | i | i | · | 1.1e-08
O=S(=O)(Nc1ccccc1F)c1ccc2nsnc2c1 | -1.0% | · | · | ? | ·
Cc1ccc(-[n+]2cc(=O)o[nH]2)cc1 | 1.7%[11.5 µM] | i | i | -2%[11.4 µM] | 1e-09
CCN(CC)CCNc1nc2c(c(=O)n(C)c(=O)n2C)n1C/C=C(/C)Cl | 5.0% | i | i | 0% | 5.3e-09
Cc1cnn(C(=S)NCc2ccc(Cl)cc2)c1 | -0.6% | i | i | 17% | 2.2e-08
COc1ncc2nc(-c3ccc(F)cc3)c(=O)n(CCC#N)c2n1 | 0.8% | i | i | -9% | 1.2e-08
Cc1ccccc1C(=O)NC1CCN(Cc2nnnn2Cc2ccccc2)CC1 | -2.2% | i | i | -1% | 4.5e-08
O=C(NCC(c1cccnc1)N1CCN(c2ccc(F)cc2)CC1)C1CCCCC1 (configuration not stated) | 0.6% | i | i | 9% | 4.4e-08
O=C(Cn1c(=O)c2c(ncn2Cc2ccccc2)n(Cc2ccccc2)c1=O)N1CCCC1 | -0.8% | i | i | · | 1e-09
CCCN1CCN(C(=O)CCCn2c(C)c3cnn(-c4ccccc4)c(=O)c3c2C)CC1 | -4.9% | · | · | 5% | ·
CC(=O)CSCc1ccccn1 | 1.2%[11.5 µM] | i | i | · | 5.3e-08
CC(=O)NCCc1cc2ccc(C)cc2[nH]c1=O | -1.9% | i | i | 1% | 4.7e-09
O=C(NC1CCCCC1)c1ccc(CS(=O)(=O)Cc2ccccc2F)o1 | -1.6% | i | i | 8% | 1e-09

Part of the list above, set out differently.
> Cc1ccccc1C(=O)NC1CCN(Cc2nnnn2Cc2ccccc2)CC1
  AID923 = -2.2%
  A488 fluor = i
  Resorufin fluor = i
  TSHR agonist = -1%
  A647 fluor = 4.5e-08
> CCN(CC)CCNc1nc2c(c(=O)n(C)c(=O)n2C)n1C/C=C(/C)Cl
  AID923 = 5.0%
  A488 fluor = i
  Resorufin fluor = i
  TSHR agonist = 0%
  A647 fluor = 5.3e-09
> CC(=O)NCCc1cc2ccc(C)cc2[nH]c1=O
  AID923 = -1.9%
  A488 fluor = i
  Resorufin fluor = i
  TSHR agonist = 1%
  A647 fluor = 4.7e-09
> O=C(NC1CCCCC1)c1ccc(CS(=O)(=O)Cc2ccccc2F)o1
  AID923 = -1.6%
  A488 fluor = i
  Resorufin fluor = i
  TSHR agonist = 8%
  A647 fluor = 1e-09

Returning to the listing with the 3 entries that preceded the break.
SMILES | AID923 | A488 fluor | Resorufin fluor | TSHR agonist | A647 fluor
CC(=O)CSCc1ccccn1 | 1.2%[11.5 µM] | i | i | · | 5.3e-08
CC(=O)NCCc1cc2ccc(C)cc2[nH]c1=O | -1.9% | i | i | 1% | 4.7e-09
O=C(NC1CCCCC1)c1ccc(CS(=O)(=O)Cc2ccccc2F)o1 | -1.6% | i | i | 8% | 1e-09
CC(=O)/C(CN1CCCCC1)=N\O | 0.5% | i | i | 4% | 1.4e-08
Cn1c(-c2cc(Br)ccc2O)n[nH]c1=S | 0.0% | · | · | ? | ·
COc1cc(C(=O)N(Cc2ccc(N(C)C)cc2)C2CCS(=O)(=O)C2)cc(OC)c1OC (configuration not stated) | -0.2% | i | i | 4%[11.4 µM] | 8.2e-09
CCOc1ccc(/C(O)=C2/C(=O)C(=O)N(CC3CCCO3)C2c2ccc(C)o2)cc1 (configuration not stated) | 1.4% | · | · | -2%[11.4 µM] | ·
CCCCn1c(=O)n(CC(=O)NCc2ccc(C)cc2)c(=O)c2c1nc(CO)n2CCC | -0.4% | i | i | · | 3.3e-08
CCC(CC)C(=O)Nc1cccc(C(=O)N2CCCC2)c1 | 0.5% | i | i | 10% | 1.3e-08
Cc1occc1C(=O)Nc1ccccc1C(=O)O | -1.4% | · | · | 8% | ·
Cc1ccc2nsnc2c1S(=O)(=O)N(CCO)Cc1cc2cc3c(cc2[nH]c1=O)OCCO3 | 3.4% | i | i | -4% | 4.3e-08
CCOC(=O)C1=C(C)NC(C)=C(C(=O)OC)[C@@H]1c1cccc([N+](=O)[O-])c1 | -3.6%[25.7 µM] | i | i | -1%[25.6 µM] | 1e-09
Brc1cc2c(cc1COc1ccc(-c3nn[nH]n3)cc1)OCO2 | -3.2% | i | i | 11% | 2.4e-08
CC1CCCN(S(=O)(=O)c2ccc(Br)s2)C1 (configuration not stated) | 1.1% | i | i | · | 7.5e-09
CCOC(=O)N1CCN(c2c(N3CCN(c4ccccn4)CC3)c(=O)c2=O)CC1 | 2.6% | · | · | -7% | ·
c1ccc(SCCOCCn2cncn2)cc1 | 1.0% | i | i | 12% | 1.9e-08
COC(=O)c1ccc(Cl)c(NS(=O)(=O)c2ccc3c(c2)OCCO3)c1 | -1.4% | i | i | ? | 8e-08
Cc1cc(=O)n2nc(N3CCCC(C(=O)NCc4ccc5c(c4)OCO5)C3)sc2n1 (configuration not stated) | -0.5% | i | i | 5% | 3.9e-08
CN(C)c1ccc(C(=O)c2ccc(N(C)C)c(N)c2)cc1N | -0.9% | i | i | -15% | 1e-09
C[C@@H](COc1ccc(/C=C\c2ccccc2)cc1)[N+](C)(C)C | -2.2% | i | i | 10% | 4.8e-08
CN(C)S(=O)(=O)c1ccc(C(=O)Nc2ccc(CCC(=O)N3CCCC3)cc2)cc1 | -2.1% | i | i | 0% | 1e-09
CN1CCN(c2ncncc2-c2ccoc2)CC1 | 6.6% | i | i | 5% | 4e-08
COC(=O)c1[nH]c2ccc(Cl)cc2c1NC(=O)CCN1CCN(C2CCCCC2)CC1 | 0.6% | i | i | -1% | 1e-09
COc1ccc(F)cc1S(=O)(=O)Nc1ccc2c(c1)OCCO2 | 1.0% | · | · | -5% | ·
CCCCOc1ccc(C(=O)O)cc1 | -0.5% | i | i | -2% | 1e-09
CCn1c(=O)cc(SCC(=O)N2CCN(Cc3ccc4c(c3)OCO4)CC2)c2ccccc21 | 0.0% | i | i | ? | 9.7e-09
CCC(C)Nc1nc(OC)nc(N(C)C#N)n1 (configuration not stated) | · | i | i | · | 9.3e-08
O=C(COC(=O)C1COc2ccccc2O1)Nc1ccc2c(c1)CCC2 (configuration not stated) | 0.1% | i | i | 6% | 1e-09
O=C(c1ccco1)N1CCC2(CC1)CCN(c1ccc(-c3ccccc3)cc1)CC2 | -2.6% | i | i | 4% | 1e-09
O=C(O)CSc1ccc2ccccc2n1 | 0.7% | i | i | 2% | 1e-09
COC(=O)[C@@H]1C2CCC(C(=O)Nc3ccccc3)(CC2)[C@@H]1C(=O)OC | -0.8% | i | i | 8% | 2.8e-08
O=C(CCCNS(=O)(=O)c1cccc2nsnc12)NCc1ccc(F)cc1 | 0.3% | i | i | -3% | 2.2e-09
O=C(O)c1nccnc1C(=O)Nc1ccc(Br)cn1 | 7.2% | · | · | 14% | ·
CCOC(=O)C(C(=O)OCC)c1cc(Br)c2noc3c2c1C(=O)c1ccccc1-3 | 6.2% | 1.2e-08M* | i | -17% | 5.6e-09
CCCCn1c(CN2CCN(CCO)CC2)nc2ccccc21 | -1.4% | i | i | ? | 1e-09
O=C(CSc1ncn[nH]1)c1ccc2c(c1)OCO2 | 1.0% | i | i | -6% | 5.2e-09
COc1ccc(OC)c(NS(=O)(=O)c2ccc(N3CCCC3=O)cc2)c1 | · | i | i | · | 1e-09
CCCSc1nc2c(c(=O)n1-c1ccc(OCC)cc1)SCC2 | -1.6% | i | i | · | 1.1e-09
O=C(NCC1CCCO1)c1c(O)c2cccc3c2n(c1=O)CCC3 (configuration not stated) | 1.5% | i | i | 13% | 1e-09
CC1=C(C(=O)OC(C)(C)C)C(c2ccco2)C(C#N)=C(N)O1 (configuration not stated) | -2.1% | i | i | 12% | 1e-09
COc1ccc(CNc2ccnc(-c3ccccc3CN(C)C)n2)c(OC)c1 | -0.7% | i | i | ? | 3.9e-08
CC1=NC(C(F)(F)F)(C(F)(F)F)C(C#N)=C(C)N1 | -0.5% | i | i | -10% | 2.6e-08
O=c1c2sc3nc(N4CCOCC4)c4c(c3c2ncn1Cc1ccco1)CCCC4 | · | i | i | · | 8.5e-09

Screening data (PubChem BioAssay)
